# Calb biofilm kill: mixture kills Candida albicans biofilm cells | C. albicans biofilm persisters + clotrimazole, fluorescence viability; primary screen in compound mixtures of four per well | inhibition, % at 7.6 µM | hit rate 0.02% among 120,000;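 active = inhibition above 30.3% in the primary screen of four-compound pools, then above 30% when the compound was retested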;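 note: compounds exposed to preformed 24 h biofilms for 48 h; the number belongs to the whole pool; some results filed as inactive read as strong as hits; inactives centre near 12; 0% = biofilm with clotrimazole alone and 100% = kill control; retested singly at about 60 µM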
#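 Test system: C. albicans CAF4-2 wild-type biofilms; buffer or medium: RPMI/MOPS medium, pH 7.0; schedule: 24 h biofilm formation, then 48 h compound exposure, 37 °C; detection: Alamar Blue fluorescence; measure: percent inhibition of biofilm viability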
# The depositor's hits bear a star.
nr	smiles	Calb biofilm kill
1	Cc1cccc(N2CCN(Cc3nc(-c4cccc(Oc5ccccc5)c4)oc3C)CC2)n1	15.8
2	CC1(C)C=Cc2cc3ccc(=O)oc3cc2O1	24.0
3	O=C(NNc1cc(Cl)cc(Cl)c1)C1CCC1	17.7
4	O=C(N/N=C/c1ccc2ncccc2c1)c1cc(-c2cccs2)nc2ccccc12	10.6
5	Cc1ccc(NC(=S)NC2CCCC2)cc1C	17.7
6	COc1ccc(CN=C(Nc2ccccc2)SC2CC(=O)NC2=O)cc1 (stereo not given)	10.9
7	CCC(CC)C(=O)N1CCN(c2cccc(C)c2C)CC1	14.4
8	Cc1ccc(NC(=S)NCC23C=CC(O2)C2C(=O)N(c4ccc(C)cc4)C(=O)C23)cc1 (stereo not given)	15.7
9	Cc1cc(C)cc(NC(=O)C(Nc2ccccc2)c2ccccc2)c1 (stereo not given)	-2.0
10	CCOC(=O)c1c(NC(=O)C(C)Sc2c[nH]c3ccccc23)sc2c1CCC2 (stereo not given)	18.3
11	O=C(O)C1C2C=CC(C2)C1C(=O)NCCCc1ccccc1 (stereo not given)	8.8
12	CS(=O)(=O)N1N=C(c2ccccc2)CC1c1ccc2nccnc2c1 (stereo not given)	8.1
13	COc1cc(C2CC(=O)Nc3c2c(=O)nc2c(C)cccn32)cc(OC)c1OC (stereo not given)	12.2
14	CNc1nnc(-c2ccc(N(C)C)cc2)s1	4.6
15	C=CCN1C(=O)c2cccc3c(Br)ccc(c23)C1=O	9.2
16	CN1/C(=C\C(=O)COC(=O)c2ccc(O)cc2)C(C)(C)c2ccccc21	18.4
17	COc1ccc(NC(=O)/C=C/c2ccccc2)cn1	12.1
18	CC(=O)O[C@H]1C(=O)[C@@]2(C)[C@H]([C@H](OC(=O)c3ccccc3)[C@]3(O)C[C@H](OC(=O)[C@H](O)C(NC(=O)c4ccccc4)c4ccccc4)C(C)=C1C3(C)C)[C@]1(OC(C)=O)CO[C@@H]1C[C@@H]2O (stereo not given in full)	22.5
19	O=C(CSc1nnc(NC(=O)C2CC2)s1)Nc1ccc2c(c1)OCCO2	25.3
20	Cc1ccc2cc(C#N)c(SCC(=O)N3CCCC3)nc2c1	16.7
21	Cc1cccc(C(=O)NCCC(=O)Nc2nc(C)c(Cc3ccc4c(c3)OCO4)s2)c1	3.0
22	O=C(CSc1ccsc1[N+](=O)[O-])NCc1ccccc1	20.6
23	CCOc1ccc(NC(=O)c2sccc2-n2cccc2)cc1	11.6
24	COc1ccccc1NC(=O)COC(=O)C1CC1	18.3
25	Cc1ccc(N(C(=O)Cc2cccs2)C(C(=O)NC2CCCCC2)c2ccccn2)cc1C (stereo not given)	9.6
26	Cc1cccc(N2CCN(c3ccc(NC(=O)/C=C\C(=O)O)cc3)CC2)c1	2.8
27	COc1ccc(NC(=O)CNC(=O)Cn2c(C)cc3ccccc3c2=O)cc1OC	15.8
28	Cc1ccccc1NC(=O)N1CCN(c2ncccn2)CC1	8.7
29	COc1c(Cl)cnn(-c2ccc(Cl)c(Cl)c2)c1=O	10.6
30	CCc1cc2c(=O)[nH]c(-c3ccccn3)nc2s1	8.8
31	CC(=O)NC(Cc1ccccc1C)C(=O)NC1CCN(C(=O)c2cccc(C)c2)CC1 (stereo not given)	14.9
32	Cc1ccc(-n2c(C)cc(C(=O)COc3c(CO)cc(F)cc3CO)c2C)cc1C	14.0
33	COc1cccc(NC(=O)c2cc(OC)c(OC)c(OC)c2Br)c1	16.6
34	CCOc1ccccc1OCCCC(=O)N(C)CC(=O)Nc1cc(C)ccc1C	9.4
35	CC(C)C(OC(=O)c1nsc(Cl)c1Cl)C(=O)NC(C)(C)C (stereo not given)	9.0
36	CCCN1CN(c2ccccc2)C(=S)N(c2ccccc2)C1	3.8
37	c1ccc(-c2nnnc3ccccc23)cc1	12.5
38	CC(C)c1cccc(C(C)C)c1NC(=O)c1ccc(OCC(=O)NCc2ccccc2)cc1	10.7
39	COc1cc(C2N(C)CCC3(OCCO3)C2(C)C)cc(OC)c1OC (stereo not given)	13.8
40	COC(=O)/C=C/C(=O)N1CCN(c2cccc(Cl)c2)CC1	10.5
41	O=C(O)COc1ccccc1/C=N/NC(=O)COc1ccc(-c2ccccc2)cc1	14.5
42	O=[N+]([O-])c1ccc2nc(-c3ccc(Cl)cc3)[nH]c2c1	5.5
43	COc1ccc(OC)c(CN2CCC(CO)(CCOc3ccccc3)CC2)c1	14.9
44	Cc1noc(C)c1C(=O)N1CCN(c2cccc(Cl)c2)CC1	10.2
45	Cc1cccn2c(CNCC3(c4ccccc4)CCCC3)c(C(=O)N3CCOCC3)nc12	17.1
46	CCNc1nc(NOC)nc(OCC#N)n1	18.2
47	Cc1cccc(NC(=O)C(=O)C2C(=O)Nc3ccccc32)c1 (stereo not given)	13.8
48	Cc1ccc(N=c2sc(C)c(C)n2C)cc1	9.9
49	CC1=CC2(O)OCCN(CCO)C2=CC1=O (stereo not given)	9.8
50	Cc1ccc(C(=O)N[C@@H](C)CN2C3=NC[C@H](C(C)C)N3C[C@H]2Cc2ccc(O)cc2)cc1Br	21.6

# Other entries:
nr	smiles	Calb biofilm kill
51	Cc1cc2cc3c(=O)[nH]c(=O)[nH]c3nc2cc1C	20.6
52	CCN1C(=O)C(C(=O)c2ccccc2)SC1=S (stereo not given)	10.9
53	Cc1cc(C)cc(NS(=O)(=O)c2ccc(F)cc2)c1	26.8
54	CCN(CC)c1ccc(/C=C/C(=O)C2C(=O)C=C(C)OC2=O)cc1 (stereo not given)	16.3
55	O=C1c2ccccc2C(=O)N1CCCCN(C(=O)c1cc([N+](=O)[O-])cc([N+](=O)[O-])c1)c1ccc(Cl)cc1	20.4
56	COc1ccc(CCNC(=O)Cc2ccc(OC)c(OC)c2)cc1OC	15.4
57	Cc1ccc(S(=O)(=O)NCCN2CCOCC2)c(C)c1C	5.5
58	CC(=O)Nc1ccc(NC(=O)C2CCCN(c3ncccn3)C2)cc1 (stereo not given)	18.7
59	O=c1c2c(nc3cc(-c4cccc(Cl)c4)[nH]n13)CCCC2	17.6
60	Cc1ccc(C)c(NC(=S)NC(C)C(c2cccs2)N2CCOCC2)c1 (stereo not given)	14.4
61	COc1cccc(-n2nc(C(N)=O)c(O)cc2=O)c1	2.3
62	Cc1c(NC(=O)CCCCCN2C(=O)c3ccccc3C2=O)c(=O)n(-c2ccccc2)n1C	12.1
63	O=C(CSc1nnc2c(n1)[nH]c1ccccc12)Nc1ccc(N2CCOCC2)cc1	-3.9
64	Cc1[nH]ccc(=O)c1OC1OC(CO)C(O)C(O)C1O (stereo not given)	3.0
65	Cc1cc(-c2onc(C)c2C(=O)N/N=C/c2ccccc2)no1	13.3
66	CC(C)(C)c1ccc(CNc2ccc([N+](=O)[O-])cn2)cc1	13.9
67	Cc1ccc(/C=C2\CCCC3=C2NC(=S)NC3c2ccc(C)cc2)cc1 (stereo not given)	18.5
68	CCOC(=O)c1[nH]c2ccc(Cl)cc2c1NC(=O)/C=C/c1ccc2c(c1)OCO2	7.4
69	CN(Cc1cccs1)C(=O)COC(=O)CNC(N)=O	6.0
70	Cc1nn(-c2ccccc2)c(Cl)c1/C=N/NC(N)=O	13.1
71	O=C1NCCN(Cc2c(F)cccc2Cl)C1CC(=O)N1CCCCO1 (stereo not given)	-2.5
72	O=C(CN1CCN(Cc2ccc3c(c2)OCO3)CC1)Nc1ccc(F)cc1	20.3
73	CCc1ccccc1NC(=S)N1CCN(c2ccccn2)CC1	14.7
74	COc1cc(OC)nc(-n2ncc(OC)c(Br)c2=O)n1	6.4
75	CC1=NN(C(=O)c2ccc(Cn3nc(C)c([N+](=O)[O-])c3C)o2)C(O)(C(F)(F)F)C1 (stereo not given)	5.1
76	COc1ccc(Nc2c(-c3ccc(C)cc3)nc3cnccn23)cc1	11.9
77	CS(=O)(=O)c1ccc2nc(NC(=O)Cc3ccccc3)sc2c1	16.1
78	COc1ccc(-c2cn[nH]c2-c2ccc(OCc3ccccc3)cc2O)cc1OC	22.5
79	CCCc1nnc(NC(=O)c2cccnc2)s1	2.6
80	Cc1ccc(OCCN2CCNCC2)c([N+](=O)[O-])c1	25.6
81	CCN=c1scc(-c2cccs2)n1/N=C/c1cc(OC)ccc1O	13.5
82	Nc1ccc(N2CCCCC2)c(S(=O)(=O)Nc2ccccc2Cl)c1	1.9
83	COc1ccc(-c2nc(NC(=O)Cn3cnnn3)sc2C)cc1	11.3
84	O=C(COc1ccc2oc(-c3ccccc3)cc(=O)c2c1)Nc1ccccc1	13.7
85	CCOC(=O)c1c(NC(=O)CSc2nnc(C)c(=O)[nH]2)sc(C)c1C	7.1
86	COc1ccc(N=c2ssnc2Cl)cc1	12.4
87	CCn1cc(C(=O)N2CCN(c3ccccn3)CC2)c(=O)c2cc(S(=O)(=O)N3CCC(C)CC3)ccc21	16.4
88	COc1ccc(N2CCN(C(=O)CC34CC5CC(CC(C5)C3)C4)CC2)c([N+](=O)[O-])c1	15.9
89	COc1cc(CC(=O)N/N=C/c2ccc([N+](=O)[O-])cc2)c([N+](=O)[O-])cc1OC	10.7
90	Cc1ccc(-c2c[n+]3c(n2-c2ccccc2)CCC3)cc1	13.3
91	CC1CCc2nc3sc4c(c3c(N)c2C1)CCCC4 (stereo not given)	16.1
92	CC(=O)c1ccc(NC(=S)N2CCCC(C(F)(F)F)C2)cc1 (stereo not given)	10.8
93	CCOc1ncccc1C(=O)Nc1cc(S(=O)(=O)N2CCOCC2)ccc1N1CCCC1	3.0
94	CCC1(C)CC2(CCCN(CCC(=O)c3ccccc3)C2)CCO1 (stereo not given)	-0.6
95	N#CC1=C(N)Nc2nc3ccccc3n2C1c1ccc(Cl)cc1 (stereo not given)	16.1
96	O=C(NNC(=S)NC1CCCCC1)c1ccccc1O	16.9
97	CN(C)C(CNc1ncnc2sc3c(c12)CCCCC3)c1ccco1 (stereo not given)	25.9
98	CCC(COC)NC(=O)CCc1nnc(Cc2cccc(C(F)(F)F)c2)o1 (stereo not given)	23.6
99	O=C(/C=C/c1ccc(-c2ccccc2)o1)c1ccccc1	12.1
100	COc1cc(OC)c2c(-c3ccccc3)cc(=O)oc2c1C(CC(=O)N1CCN(c2ccccc2)CC1)c1ccc2c(c1)OCO2 (stereo not given)	10.6

# (more compounds)
nr	smiles	Calb biofilm kill
101	Fc1ccc(C2=CSC3=NCCN23)cc1	-2.0
102	O=C(CCNC(=O)c1ccccc1Cl)NC1=NCCS1	14.4
103	C[C@@H](O)c1nc2ccccc2n1N	16.4
104	Cc1cc(C)nc(-n2nc(C)cc2NC(=O)c2ccc(S(=O)(=O)N3CCOCC3)cc2)n1	15.1
105	CNC(=S)N(CCc1c(C)[nH]c2ccccc12)Cc1ccco1	11.6
106	Cc1cc(-c2csc(NC(=O)c3ccc(C#N)cc3)n2)c(C)n1Cc1ccccc1	12.5
107	Cc1ccc(-c2cc(C(=O)Nc3cc(C)on3)c3ccccc3n2)cc1	17.6
108	N#Cc1ccc(C23CC4(C2)[C@H](CN(P(=O)(c2ccccc2)c2ccccc2)[C@@H]4c2ccccc2)C3c2ccc(Cl)nc2)cc1 (stereo not given in full)	-0.8
109	O=[N+]([O-])c1cccc(-n2cccc2/C=N/Nc2nc(N3CCCCC3)nc(N3CCCCC3)n2)c1	10.2
110	OCCC1CN(Cc2nc3ccccc3s2)CCN1CCc1ccccc1 (stereo not given)	6.7
111	O=C(Nc1ccc(Br)cc1)c1ccc(Br)c(S(=O)(=O)Nc2cccnc2)c1	2.9
112	O=C(C1=C[C@H](c2ccc(C(F)(F)F)cc2)C[C@H](OCCCCO)O1)N1CCN(Cc2ccccc2)CC1	11.6
113	Cc1ccc(NC(=O)CSc2nnc(-c3cccs3)o2)cc1S(=O)(=O)N(C)C	13.8
114	Cc1cc2cc(CNC(=O)c3ccc(Br)o3)ccc2n1C	2.8
115	O=C(COC(=O)CCC(=O)c1cccs1)NC(=O)c1ccc(OC(F)F)cc1	9.2
116	CCN(CC)Cc1c(O)c(Cl)cc2c(C)cc(=O)oc12	-2.2
117	COCCNC(=O)c1onc(CSc2ccc(F)cc2)c1C(=O)NCCOC	10.5
118	CC(=O)NC(c1ccccc1)c1cc([N+](=O)[O-])c2cccnc2c1O (stereo not given)	11.7
119	O=c1c2c3c(sc2[nH]c(=S)n1Cc1ccco1)CCC3	14.0
120	Nc1nc(NCC2CCCO2)nc(Nc2ccccc2)c1[N+](=O)[O-] (stereo not given)	6.9
121	COC(=O)CCCCCNC(=S)Nc1ccc2[nH]c(=O)[nH]c2c1	21.3
122	CCOC(=O)C(NC(=O)Nc1ccc(O)cc1)(c1ccccc1)C(F)(F)F (stereo not given)	9.9
123	CCOc1ccc(NC(=S)NCc2ccc3c(c2)OCO3)cc1	22.6
124	CCSS(=O)(=O)c1cccc2cccnc12	17.3
125	CCn1c(Cc2ccc(OC)cc2)nnc1SCc1nc2ccccc2c(=O)[nH]1	15.3
126	CCCn1c(SCC(=O)Nc2ccccc2N2CCOCC2)nc2c1c(=O)n(C)c(=O)n2C	4.0
127	O=C(CSc1n[nH]c(=O)n1-c1ccc2c(c1)OCCO2)Nc1ccccc1	29.4
128	Cc1ccc2c(CNCc3ccco3)cc(=O)oc2c1	15.2
129	CCOC(=O)CNC(=O)CSc1nc(-c2ccc(C)cc2)ns1	14.7
130	COc1ccc(-c2cc(C(F)F)n3ncc(C(=O)N4CCN(C)CC4)c3n2)cc1	14.2
131	CC1(C)C2CC=C(/C=N/NC(=O)c3ccc(O)cc3)C1C2 (stereo not given)	19.6

# An excerpt (hit frequency here may not be typical).
